From PubChem
Env fusion inh = blocks HIV Env-driven cell-cell fusion; HeLa-JRFL Env/CEM21 cell fusion, luciferase; inhibition, % at 12.3 µM; 360,000 tested, 1.1% active; AID 651610;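 active = mean replicate inhibition score of at least 50 and every replicate individually at or above 50; inconclusive = only one of the two criteria met; inactive = mean below 50 and not all replicates reaching 50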;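 note: 0% = plate neutral controls and 100% = maraviroc near 300 nM; one replicate is shown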
PABP FP inh = blocks human PABP binding to poly(A) RNA. P11940. AID 2014. inhibition, % at 35 µM. fluorescence polarization. 290,000 tested, 1% active;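 active = 50% or more with normal probe brightness, or confirmed in later tests; inconclusive = above 50% with abnormal brightness, or retests that disagree; inactive = below 50% or failed in later tests; about a fifth of its hits are not listed in these tables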;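 note: calls also rest on retests at 20 µM and on dose response follow-up; controls were probe without protein and protein plus probe with vehicle; some compounds called inactive have numbers as strong as hits; many hits fall short of the cut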
Target sequence (P11940 whole entry, looked up): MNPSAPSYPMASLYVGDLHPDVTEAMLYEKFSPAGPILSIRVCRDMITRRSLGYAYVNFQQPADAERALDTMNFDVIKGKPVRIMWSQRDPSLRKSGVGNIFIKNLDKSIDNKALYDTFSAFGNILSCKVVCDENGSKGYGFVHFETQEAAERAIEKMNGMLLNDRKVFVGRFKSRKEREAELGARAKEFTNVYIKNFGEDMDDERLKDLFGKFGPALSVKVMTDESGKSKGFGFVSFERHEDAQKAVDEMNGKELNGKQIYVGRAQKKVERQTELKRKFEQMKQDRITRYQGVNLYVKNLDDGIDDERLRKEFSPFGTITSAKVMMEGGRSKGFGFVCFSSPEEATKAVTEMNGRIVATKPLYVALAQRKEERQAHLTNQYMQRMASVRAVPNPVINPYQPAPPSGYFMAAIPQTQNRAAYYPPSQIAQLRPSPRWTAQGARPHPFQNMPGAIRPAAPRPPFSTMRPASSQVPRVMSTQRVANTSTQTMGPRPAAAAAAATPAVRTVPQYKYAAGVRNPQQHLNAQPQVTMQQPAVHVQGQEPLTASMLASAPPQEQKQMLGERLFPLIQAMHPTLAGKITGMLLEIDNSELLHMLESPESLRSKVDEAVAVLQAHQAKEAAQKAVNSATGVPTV
Rce1 inhib = blocks yeast Ras-converting enzyme; Q03530; yeast membranes, quenched prenylated peptide cleavage fluorescence; calls only; 290,000 tested, 0.27% active;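 active = fall in fluorescence gain of 50% or more versus controls, with final raw signal at or below 3038400; inconclusive = same 50% fall but final raw signal above 3038400; inactive = fall in fluorescence gain under 50%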;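 note: plate controls were neutral control wells for no effect and wells lacking membranes for full effect; tested at 10 µM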
Target sequence (Q03530 whole entry, looked up): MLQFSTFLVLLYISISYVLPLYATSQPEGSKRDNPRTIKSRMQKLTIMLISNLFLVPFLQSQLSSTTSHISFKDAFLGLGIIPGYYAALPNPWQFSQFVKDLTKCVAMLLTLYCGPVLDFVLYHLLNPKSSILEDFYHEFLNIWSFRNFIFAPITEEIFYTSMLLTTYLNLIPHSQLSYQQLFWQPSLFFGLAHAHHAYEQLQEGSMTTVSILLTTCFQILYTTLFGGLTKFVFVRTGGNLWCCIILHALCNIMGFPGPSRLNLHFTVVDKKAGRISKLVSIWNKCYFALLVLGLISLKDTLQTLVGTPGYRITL
eIF4H inh = inhibitors of RNA binding by human eIF4H; Q15056; eIF4H fluorescence polarization binding assay; inhibition, % at 35 µM; 290,000 tested, 0.94% active; AID 2012;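 active = 50% or more with normal probe brightness, or confirmed in later tests; inconclusive = above 50% with abnormal brightness, or retests that disagree; inactive = below 50% or failed in later tests; about a fifth of its hits are not listed in these tables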;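 note: calls also rest on retests at 20 µM and on dose response follow-up; 0% = protein and probe with vehicle and 100% = probe without protein; strong numbers were not always called active; many hits fall short of the cut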
Yeast UUG start = modulators of start codon recognition fidelity in yeast; S. cerevisiae UUG-firefly luciferase reporter, luminescence/redox ratio; activity score, % at 18.7 µM; 350,000 tested, 0.13% active; AID 602363;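 active = replicate mean at a twofold rise or more, about +100% in these data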;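 note: firefly luciferase made from a UUG start codon reports start codon fidelity; reporter light over untreated wells divided by growth signal over untreated wells; some hits fall short of that in this replicate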
MT1-MMP act inh = MT1-MMP (human) activation inhibition; GFP/RFP ratio change, % at 20 µM; HT1080 RFP-PRO-GFP cells, GFP/RFP ratio fluorescence, overnight; percent of plate control window, DMSO zero; P50281; AID 651647; 360,000 tested, 0.061% active;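 active = GFP/RFP ratio change of at least 30% with cell ATP level not reduced by more than half and red fluorescence within 50% of control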; note: strong numbers were not always called active
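Material – HT1080 RFP-PRO-GFP cells · Control set – DMSO wells and RFP-L50D-GFP cells · Incubation – overnight cell settling, then overnight compound exposure, 37 °C, 5% CO2 · Compound dosing – single-point 20 µM compound, 1% DMSO · Read-out – GFP/RFP fluorescence ratio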
CSC inhib = cancer stem cell inhibition; cancer stem cell-like cells viability, luminescence; inhibition, % at 7.5 µM; 300,000 tested, 1.1% active; AID 2717;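 active = mean at 75% or more and at least half the replicates too; inconclusive = mean and replicates disagree; tested in HMLE shEcad cells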;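 note: 0% = median of negative and 100% = median of positive control wells; the first replicate is given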
eIF4H inh retest = further read-out of eIF4H inh, marked with its call; inhibition, %; compound at 20 µM; confirmation average;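 mean of two retest wells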
PABP FP inh retest = further read-out of PABP FP inh, marked with its call; inhibition, %; compound at 20 µM; confirmation repeats;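 mean of two retest wells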
MT1-MMP act inh RFP = also measured in MT1-MMP act inh; calls as there; RFP signal change, %; measured here: RFP expression control read;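 0 = vehicle wells; hits needed this value within 50% of zero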
Numbers without * were called inactive; i = inactive; ? = inconclusive; . = no result given; + = active, no number.

SMILES	Env fusion inh	PABP FP inh	Rce1 inhib	eIF4H inh	Yeast UUG start	MT1-MMP act inh	MT1-MMP act inh RFP	CSC inhib	others
O=C(CSc1nnc(-c2ccccc2)c(-c2ccccc2)n1)NC1CCS(=O)(=O)C1 (configuration not stated)	0	?	i	-1	.	-1	1	.
COc1ccccc1C(=O)NCC(=O)NC(C)CCc1ccccc1 (configuration not stated)	0	-4	i	-8	-1	1	1	-7
Cc1ccc(N(C(=O)CNC(=O)c2ccco2)C(C(=O)NCC2CCCO2)c2ccccc2)cc1 (configuration not stated)	6	-8	i	-5	-2	1	8	-5
Cc1ccccc1CC(=O)Nc1ccc(S(=O)(=O)N2CCN(C)CC2)cc1	-11	-8	i	-13	-21	0	3	-14
CCCn1c(=O)c(C(=O)Nc2ccccc2N)c(O)c2ccccc21	-18	.	.	.	-7	1	-5	.
CC(=O)c1ccc(OCC(=O)OCC(=O)c2ccc(S(=O)(=O)N3CCCCC3)cc2)cc1	3	.	.	.	6	3	6	.
Cc1cccc(C)c1N=C1NN=C(c2ccccc2F)CS1	25	-1	i	2	.	-8	-8	16
O=C(Cc1cccc(C(F)(F)F)c1)OCC(=O)N1CCN(S(=O)(=O)c2ccc(Cl)cc2)CC1	-92	.	i	.	6	2	5	-6
O=C(CCN1C(=O)c2ccccc2S1(=O)=O)NCc1ccco1	-40	1	i	-7	-6	-4	0	-5
O=C(COc1ccc(=O)n(-c2ccccc2)n1)Nc1ccccc1	-34	-13	i	2	5	-1	1	-5
CCC(C)[C@H](NC(=O)Nc1ccc(S(N)(=O)=O)cc1)C(=O)O (some centres not stated)	-12	2	i	4	-2	1	7	-9
COC(=O)C1=C(C(=O)OC)[C@@H]2N(Cc3ccccc3)c3ccccc3[C@@]23C[C@@H](C(=O)OC)N(C(=O)CC(C)C)C3=N1	26	3	i	-4	-8	-9	-10	22
COc1cc(NC(=O)NCC2CCN(Cc3ccccc3C)CC2)cc(OC)c1OC	-1	3	i	5	-13	2	4	7
O=C(COC(=O)c1ccc(F)cc1F)c1ccc[nH]1	4	.	.	.	-12	1	3	.
COc1ccc2c(CC(=O)N[C@@H](Cc3c[nH]c4ccccc34)C(=O)O)cc(=O)oc2c1	9	1	i	0	-11	-1	2	-14
CCOc1ccc(NC(=O)CN(C)C(=O)c2ccc(N3CCCCC3)c([N+](=O)[O-])c2)cc1OCC	2	.	i	.	4	2	-3	-7
COc1cccc(-n2c(SCC(=O)NC(C)(C)C)nnc2-c2ccoc2C)c1	.	0	i	-6	-9	8	5	9
CS(=O)(=O)c1ccccc1-c1nc(-c2cc(C(F)(F)F)cc(C(F)(F)F)c2)no1	.	-6	i	-3	.	2	3	-11
CCCCOc1cc(C)nc(NCc2ccccc2)n1	.	95	i	-11	-31	-4	-6	43	eIF4H inh retest=45;PABP FP inh retest=-13
O=C(Nc1cc(S(=O)(=O)N2CCCCC2)ccc1Cl)c1ccccc1NS(=O)(=O)c1ccc(F)cc1	71*	-6	+	6	.	-33	-37	83*
O=C(Cn1cc(C(F)(F)F)ccc1=O)NCc1ccc(F)cc1	-9	-9	i	-5	-7	1	9	.
COc1cc(CNc2nnnn2C)ccc1OCc1ccc(F)cc1Cl	13	-2	i	-5	1	1	-2	-13
CC1=C(C(=O)Nc2ccccc2)C(c2coc3ccccc3c2=O)C2=C(CCCC2=O)N1 (configuration not stated)	.	-5	i	1	.	0	7	-3
CCc1ccc(/C=N\NC(=O)c2ccc(Br)o2)s1	i	14	i	2	-3	4	5	17
COc1cccc2cc(C(=O)NCCc3c[nH]c4ccccc34)c(=O)oc12	49	-11	i	-6	.	0	-3	2
O=C(OCc1ccccc1)N1CCOCCN(C(=O)OCc2ccccc2)CCOCC1	30	2	i	-2	.	-3	-6	-11
CCN(CC)Cc1c(O)ccc2c1O/C(=C\C=C\c1ccccc1)C2=O	i	?	i	?	8	-112	-18	109*
COC(=O)C1=C(C)N(Cc2ccccc2)C(=NCCCCO)N[C@H]1c1cccc(C(F)(F)F)c1	-117	.	.	.	1	-2	1	1
COC1=C(c2ccccc2)C(=O)c2ccccc2C1=O	-38	-3	i	1	.	1	8	-3
O=C(Nc1cccnc1)C1OCCc2ccccc21 (configuration not stated)	.	2	i	3	-7	0	2	-4
Fc1ccc2c(c1)c1n[nH]c(=S)nc1n2CCc1ccccc1	-1	5	i	-10	-28	0	-3	.
Cc1nc(-c2ccccc2)sc1C(=O)CSc1ccc(Br)cc1	.	-11	i	2	.	1	4	.
Cc1ccc(CN2C(=O)CCC2C(=O)NCCN(CC(C)C)CC(C)C)cc1 (configuration not stated)	.	2	i	-9	.	3	1	-5
Cc1cc(NC(=O)C2CCN(S(=O)(=O)c3c(C)noc3C)CC2)ccc1Br	7	-2	i	4	-22	5	-8	23
Cc1nn(-c2ccccc2)c(C)c1C(=O)OC/C(O)=C(\C#N)c1nc2ccccc2[nH]1	-46	30	i	14	.	-10	4	4
CCc1cccc(C)c1NC(=O)c1ccccc1	24	2	i	5	.	1	2	-7

Next section, overlapping the part above by three compounds.
SMILES	Env fusion inh	PABP FP inh	Rce1 inhib	eIF4H inh	Yeast UUG start	MT1-MMP act inh	MT1-MMP act inh RFP	CSC inhib	others
Cc1cc(NC(=O)C2CCN(S(=O)(=O)c3c(C)noc3C)CC2)ccc1Br	7	-2	i	4	-22	5	-8	23
Cc1nn(-c2ccccc2)c(C)c1C(=O)OC/C(O)=C(\C#N)c1nc2ccccc2[nH]1	-46	30	i	14	.	-10	4	4
CCc1cccc(C)c1NC(=O)c1ccccc1	24	2	i	5	.	1	2	-7
COc1cccc(N2CCN(S(=O)(=O)c3cn(C)cn3)CC2)c1	3	5	i	-7	-7	-6	0	17
COc1ccccc1CNC(=O)C1CC(=O)N(C2CCCC2)C1 (configuration not stated)	.	1	i	-8	-5	2	2	7
N/C(Cc1ccc([N+](=O)[O-])cc1)=N\OC(=O)COc1cccc2ccccc12	.	-3	i	-5	-10	-11	-5	14
CC(NC(=O)COC(=O)/C=C/c1cccc(C(F)(F)F)c1)c1ccccc1 (configuration not stated)	5	-6	i	-8	.	2	4	2
COc1ccccc1N1CCN(C(=O)c2cn(-c3ccccc3)nc2-c2cccnc2)CC1	.	0	i	-4	-4	-2	-3	.
COc1ccc(C(=O)O/N=C(\N)c2ccc(Br)cc2)cc1	-96	13	i	88	-4	-5	-2	14	eIF4H inh retest=-7;PABP FP inh retest=7
CCCCCn1c(SCC(=O)c2ccccc2)nc2cc(C(=O)NCC3CCCO3)ccc2c1=O (configuration not stated)	8	.	.	.	-7	-2	2	.
O=c1cc(CSc2ccc(Cl)cc2)nc2nc[nH]n12	10	1	i	-6	-22	-2	-2	4
Cc1cccc(C)c1NC(=O)NC1(C(=O)N2CCCC2)CCCCC1	10	8	i	4	2	0	-1	.
COCCN(C(=O)CCC(=O)Nc1nccs1)C(C(=O)NC(C)(C)C)c1ccc(Cl)cc1 (configuration not stated)	-18	4	i	3	.	1	1	-1
CCCCSc1nc2c(cnn2-c2ccc(Cl)cc2)c(=O)[nH]1	-107	-5	i	0	-16	-1	-1	1
CCN1CCN(c2ccc(NC(=O)CCc3c(C)nc4c(-c5ccccc5)c(C)nn4c3C)cc2)CC1	-9	-3	i	0	3	6	2	54
CCOc1cc(/C=C(\CC(=O)O)c2nc3ccccc3s2)ccc1OCC(=O)Nc1cccc(C(F)(F)F)c1	4	.	.	.	-29	0	-15	.
Cc1nc(-c2cn[nH]c2-c2ccc(O)cc2O)cs1	14	-4	i	4	.	-2	-2	-21
Cc1csc(NC(=O)c2sc3nc(-c4cccs4)ccc3c2N)n1	.	12	i	12	.	.	.	-27
CC(NCc1cc(Br)ccc1OCC(=O)NCc1ccccc1)c1ccccc1 (configuration not stated)	21	-12	i	-10	-13	-6	-13	.
CN(C)C(CNC(=O)c1cccc(S(=O)(=O)Nc2ccccc2Cl)c1)c1ccccc1 (configuration not stated)	-9	.	.	.	1	0	-1	.
CCOc1ccc2nc(N3CCC(C(=O)N4CCN(C5CCCCC5)CC4)CC3)sc2c1	22	25	i	5	0	1	-17	14
O=C(CCC(=O)c1cccs1)NCc1cccc(C(F)(F)F)c1	.	.	i	.	-19	2	1	-3
CN(C)c1ccc(/C=C2\C(=N)N3N=C(CC(=O)N4CCCC4)SC3=NC2=O)cc1Br	0	2	i	-10	-17	-10	3	-3
Cc1ccccc1C(=O)N1CCN(c2ccc([N+](=O)[O-])c(N3CCOCC3)c2)CC1	.	-10	i	8	5	6	0	-5
CN(c1cccc(NC(=O)COc2ccc(Cl)cc2Cl)c1)S(C)(=O)=O	-28	13	i	-1	-11	5	-8	-7
O=C(N/N=C/c1ccc([N+](=O)[O-])o1)c1cn2ccc3ccccc3c2n1	-39	69*	.	82*	.	0	-5	1
CC(Oc1ccccc1)C(=O)Nc1nnc(S(=O)(=O)N2CCCCC2)s1 (configuration not stated)	1	6	i	0	-5	2	3	3
CC(C)N(C(=O)Nc1ccc2nsnc2c1)C(C)C	12	83*	i	101*	.	.	.	7	eIF4H inh retest=87*;PABP FP inh retest=70*
O=C(CN(Cc1ccc(F)cc1)C(=O)c1ccco1)NCc1ccc(F)cc1	7	-8	i	-10	-13	8	0	4
O=C(COc1ccc(S(=O)(=O)N2CCCC2)cc1[N+](=O)[O-])N1CCCCC1	-3	.	.	.	-6	0	6	.
N#C/C(=C\c1c(F)cccc1Cl)C(=O)NC1CC1	15	10	i	11	-13	-11	-3	-4
CCOC(=O)N1CCN(C(=O)/C=C/c2ccc([N+](=O)[O-])cc2)CC1	4	-6	i	-2	.	.	.	-5
COc1ccc(C(=O)Nc2cccnc2)cc1C(=O)Nc1cccnc1	.	2	i	8	5	0	0	4
CCOc1ccc(N(CC(=O)NCC(C)C)S(C)(=O)=O)cc1	.	5	i	-9	-14	0	1	-4
NC(=O)c1ncn([C@@H]2O[C@H](CNCc3c(OCc4ccccc4F)ccc4ccccc34)[C@@H](O)[C@H]2O)n1	0	.	.	.	-4	0	0	.
Cc1ccc(C)c(S(=O)(=O)Nc2ccc(C(=O)NCCCN3CCCC3=O)cc2)c1	.	-2	i	-13	2	-5	0	-9
COc1ccc(N2CCN(C(=O)COC(=O)CCOc3ccc(C(C)(C)C)cc3)CC2)cc1	13	.	i	.	-6	-2	1	-6
Cc1cc(C)c(S(=O)(=O)Nc2ccc(O)cc2)c(C)c1	-11	-4	i	-4	2	0	0	-2
CCn1c(=O)c2c(nc(SCC(=O)N3CCCC(C)C3)n2C)n(C)c1=O (configuration not stated)	1	19	i	-1	7	1	1	-21
COc1ccccc1CN1C(=O)[C@@H]2C(CCC(N)=O)NC3(C(=O)Nc4c3ccc(Cl)c4C)[C@@H]2C1=O (some centres not stated)	-143	-4	i	-3	.	-11	-7	-11
O=C(CSc1ccc([N+](=O)[O-])cc1)NCC1CCCCC1	-13	28	i	3	-6	-3	1	-3
COc1ccc(C(=O)C2CCCN(C(=O)c3cccnc3SC)C2)c(C)c1 (configuration not stated)	20	1	i	-4	.	-4	-5	-6
Cc1ccc(NC(=O)C(=S)NCc2ccco2)cc1	.	-6	i	-6	-10	-2	4	9
CCOc1ccc(/C=N/NC(N)=S)cc1	.	-14	i	2	.	4	3	-16

This is a subset, so the mix of outcomes need not match the whole.
